# D2 PAM = Beta-Arrestin HTS for Positive Allosteric Modulators of the Human D2 Dopamine Receptor: Potentiators; potentiation, % (no concentration beside the values); hit rate 0.23% among 360,000; D(2) dopamine receptor (Homo sapiens), P14416; AID 624464, 2012; DiscoveRx D2 beta-arrestin cells, luminescence, 90 min; 100% = 57 uM dopamine signal; active = potentiation of 50% or more; inconclusive = 30% to 50%; inactive = 30% or less;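 further: compound concentration not given in the record; tested on top of an EC20 dose of dopamine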
# Target sequence (P14416 whole entry, looked up): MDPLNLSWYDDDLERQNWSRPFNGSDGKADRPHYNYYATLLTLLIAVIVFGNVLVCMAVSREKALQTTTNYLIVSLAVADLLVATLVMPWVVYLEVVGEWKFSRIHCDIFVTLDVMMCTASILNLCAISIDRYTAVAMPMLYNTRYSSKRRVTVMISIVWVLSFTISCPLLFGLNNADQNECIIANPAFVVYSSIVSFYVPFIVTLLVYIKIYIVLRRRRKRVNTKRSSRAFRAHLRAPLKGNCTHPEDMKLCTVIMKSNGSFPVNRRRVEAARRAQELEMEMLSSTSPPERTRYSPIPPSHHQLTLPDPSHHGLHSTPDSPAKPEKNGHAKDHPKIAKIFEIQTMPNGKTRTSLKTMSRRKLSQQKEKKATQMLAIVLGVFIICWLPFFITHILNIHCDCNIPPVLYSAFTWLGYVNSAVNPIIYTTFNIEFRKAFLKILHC
#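 D2 cells co-treated with compound plus 50 nM dopamine (EC20) for 90 min at 37 deg C to detect potentiation. Beta-arrestin recruitment was read as enzyme-fragment luminescence after 1 h at ambient temperature. Full response was set by 57 uM dopamine.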
# TRPML1 inh = qHTS for Inhibitors of the Human Mucolipin Transient Receptor Potential 1 (TRPML1); activity change, negative = inhibition, % (concentration not given with the values); hit rate 0.02% among 390,000; TRPML1-inducible cells, Ca2+ dye fluorescence, FDSS; stronger effect = lower value; inhibition of EC80 agonist-evoked calcium signal; Mucolipin-1 (Homo sapiens), Q9GZU1; in the data active means activity change below about -50%; inconclusive means about -30% to -50%; inactive means above about -30%;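 further: stimulus is agonist 54-4 at its EC80 concentration; on the % scale 0 is the no-effect control and ±100 the full control effect; compound concentration not given in the record; the text of the record puts the active cut at -80%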
# Target sequence (Q9GZU1 whole entry, looked up): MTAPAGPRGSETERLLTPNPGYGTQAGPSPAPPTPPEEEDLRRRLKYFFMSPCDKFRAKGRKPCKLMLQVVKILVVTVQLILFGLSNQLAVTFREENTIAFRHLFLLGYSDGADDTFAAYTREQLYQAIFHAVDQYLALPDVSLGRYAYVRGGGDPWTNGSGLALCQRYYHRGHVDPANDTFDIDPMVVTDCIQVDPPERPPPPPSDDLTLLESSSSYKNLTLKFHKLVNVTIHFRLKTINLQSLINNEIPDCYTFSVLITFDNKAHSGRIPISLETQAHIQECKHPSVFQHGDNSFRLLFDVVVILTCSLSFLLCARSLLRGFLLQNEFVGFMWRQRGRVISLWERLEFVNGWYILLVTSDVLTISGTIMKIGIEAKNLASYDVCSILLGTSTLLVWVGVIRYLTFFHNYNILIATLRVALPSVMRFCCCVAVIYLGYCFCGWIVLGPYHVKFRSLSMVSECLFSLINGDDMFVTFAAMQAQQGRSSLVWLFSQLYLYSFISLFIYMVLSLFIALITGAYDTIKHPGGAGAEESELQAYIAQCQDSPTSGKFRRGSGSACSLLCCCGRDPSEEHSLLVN
#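 Calcium fluorescence in TRPML1-DL cells induced overnight with Tet: a 110 s read after compound pin addition, then a 110 s antagonist read after challenge with 54-4 at 4 uM final (EC80).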
# TRPML1 agonist = qHTS for Agonists of the Human Mucolipin Transient Receptor Potential 1 (TRPML1); activation, % (concentration not given with the values); TRPML1-expressing cells, Ca2+ dye fluorescence, FDSS; host cell line not named in the record; reference of the full effect not given here; Mucolipin-1 (Homo sapiens), Q9GZU1; hit rate 0.12% among 410,000; in the data active = activation above about 50%; inconclusive = about 30% to 50%; inactive = below about 30%; further: 0% is about no effect; the text of the record puts the active cut at 80%
#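 In this qHTS format, compounds were pin-transferred onto Ca8-dye-loaded TRPML1-DL cells induced with Tet overnight, and intracellular Ca2+ fluorescence was recorded kinetically for 110 s after a 10 s baseline. A subsequent 4uM final 54-4 (EC80) addition followed by a second 110 s read served as the antagonist phase.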
# D2 ag = Beta-Arrestin HTS for Positive Allosteric Modulators of the Human D2 Dopamine Receptor: Agonists. AID 624465, 2012. DiscoveRx PathHunter D2 beta-arrestin, luminescence, 90 min; 100% = 57 uM dopamine signal. activation, % (no concentration beside the values). D(2) dopamine receptor (Homo sapiens), P14416. hit rate 0.084% among 360,000; in the data active = activation above about 40%; inconclusive = about 15% to 40%; inactive = below about 15%; further: compound concentration not given in the record; the text of the record calls up to 30% inactive
#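 Agonist mode: compounds alone added to overnight-plated D2 PathHunter cells for 90 min at 37 C, with 57 uM final dopamine (EC100) defining full response. Beta-arrestin recruitment detected by chemiluminescent reagent, read after 1 h at ambient temperature.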
# PINK1 expr mod = A Quantitative High throughput Screen to Identify Chemical Modulators of PINK1 Expression; Potency, µM (highest dose often 76.6 µM), inactives show at the highest dose activation (PINK1 increase), actives largely listed as activators; hit rate 0.2% among 410,000; PINK1 immunofluorescence, high-content cytometry, 24 h; active = well fitted activation curve with a large enough effect; inconclusive = small, poorly fitted or top-dose-only effect; inactive = flat fitted curve, though single readings scatter; cell line not stated here;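 further: potency means the concentration at half of the fitted maximal effect; % of control where 0% means no effect; nearly all actives have a fitted effect of over 65% in size; a mitochondrial uncoupler was the plate control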
#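 A stable cell line was treated with compounds at 5 concentrations for 24 hours, with CCCP as control. PINK1 levels and mitochondrial localization were measured by immunofluorescence with mitochondrial, cell and nuclear markers after fixation, read by laser-scanning cytometry.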
# Six1-Eya2 blk = qHTS Assay for Inhibitors of the Six1/Eya2 Interaction | activity change, % (concentration not given with the values) | hit rate 0.56% among 360,000 | AID 651725, 2012 | AlphaScreen GST-Six1/His-Eya2 binding, biochemical; stronger effect = lower value; control for the full effect not named in the record; in the data active = activity change below about -65%; inconclusive = about -30% to -65%; inactive = above about -30%; further: on the % scale 0 is the no-effect control and ±100 the full control effect
#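 GST-Six1 + His-Eya2 (5X stock: 250/500 nM); Tris pH 8.0, 300 mM NaCl, 0.05% BSA, 0.02% Tween 20; GSH donor/Ni acceptor beads; 1 h 37 °C dark; AlphaScreen readout.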
# An asterisk follows results filed as active; x = no result given; & = joins results of further samples; [ ] = remark or other dose.
SMILES,D2 PAM,TRPML1 inh,TRPML1 agonist,D2 ag,PINK1 expr mod,Six1-Eya2 blk
CC(C(=O)NC1CCCC1)N(Cc1ccc2c(c1)OCO2)C(=O)c1snc(C(N)=O)c1N (stereo unspecified),-18.9,-19.1,0.3,-1.8,-1.6%,2.0
COc1ccc(C(=O)CC(=O)C(=O)Nc2ccccc2OC)cc1,-10.3,-1.2,2.3,2.5,-2.0%,-9.2
COCc1cc(C)n(CC(=O)Nc2ccc(Cl)cc2Cl)c(=O)c1C#N,-14.1,-5.7,-0.3,-1.5,-0.2%,3.9
COc1ccc2c(c1)CCc1c-2nc2ccccc2c1N1CCOCC1,-10.1,-17.0,1.2,2.4,-2.1%,-21.6
CC1=C(C)[N+](=O)C2(O)CCCCC2(C)N1[O-] (stereo unspecified),-16.2,-7.2,-0.4,-2.9,0.2%,2.1
CN1CCC/C1=C1/C(=O)N(c2ccccc2)N=C1NC(=O)Nc1cccc(Cl)c1,-14.0,1.8,-0.2,1.3,2.1%,-10.4
O=C(O)c1c(N2CCCCC2)ccc([N+](=O)[O-])c1N1CCCCC1,-0.2,-11.8,0.8,-1.5,-0.2%,6.2
O=c1c(Cl)c(NCc2ccccc2)cnn1C12CC3CC(CC(C3)C1)C2,-4.3,-0.9,0.1,4.0,-2.7%,5.3
CCOC(=O)C1=CN(Cc2cccc(-c3cccnc3)c2)S(=O)(=O)N(CC)C1C (stereo unspecified),x,10.4,1.7,2.7,0.8%,-3.9
Cc1ccnn1-c1ccc(C(=O)NCc2ccccc2CN2CCOCC2)cc1,-15.7,-1.0,0.1,-3.1,-2.2%,-4.5
O=C(Nc1cc(F)ccc1F)C1CCCN(c2ncnc3c2nc2n3CCCCC2)C1 (stereo unspecified),-7.3,7.9,2.5,1.1,-0.2%,-5.9
Cn1c(CNC(=O)CSc2nc(-c3cccc(Cl)c3)nc3cc(=O)[nH]n23)nc2ccccc21,x,-1.6,-0.7,x,2.1%,x
CN(c1ccccc1)S(=O)(=O)c1cccc(C(=O)NCCc2c[nH]c3ccccc23)c1,-9.7,18.7,2.7,0.7,0.1%,3.6
CCOc1ccc(OCC)c(-c2c(=O)n(OCc3ccc(Cl)cc3)c3ccccc3[n+]2[O-])c1,-19.1,24.7,0.8,-4.8,16.2%[38.3 µM],-14.3
Cc1cc(=O)[nH]c2ccc(S(=O)(=O)N3CCOCC3)cc12,-1.0,-0.3,1.4,-3.0,1.4%,2.4
CC(=O)Nc1cccc(NC=C(C#N)C#N)c1,-9.4,-14.9,-0.3,3.4,-1.4%,-0.5
CC(C)(C)CNC(=O)c1ccc2c(c1)S(=O)(=O)c1cc(Cl)ccc1C2=O,0.5,30.6,-0.8,3.2,-1.7%,-2.6
O=C(N/N=C/c1cc(Cl)cc([N+](=O)[O-])c1O)c1cccc(S(=O)(=O)N2CCOCC2)c1,1.2,42.5,-0.3,-10.3,1.3%,-90.9*
CCOc1ccc(S(=O)(=O)N(CC)CC(=O)NCc2ccncc2)cc1C,-1.5,-7.9,0.0,2.0,0.1%,1.9
O=C(CCN1C(=O)C2CC=CCC2C1=O)Nc1ccc(S(=O)(=O)N2CCCCC2)cc1 (stereo unspecified),7.0,-2.0,-0.5,-2.1,0.7%,9.7
C=C(C)CN(CC)C(=O)CSc1ccc(S(=O)(=O)N2CCN(C)CC2)cn1,-8.1,-11.6,0.1,-3.0,2.4%,-0.4
COc1ccc(OCCn2c(C3CC(=O)N(c4ccc(F)cc4)C3)nc3ccccc32)cc1 (stereo unspecified),x,7.5,0.6,x,1.8%,x
COc1ccc(N2CCN(Cc3cc(=O)oc4cc(-c5ccccc5)c(O)cc34)CC2)cc1,3.1,14.9,-0.5,-0.4,3.5%,-4.5
CC(C)c1cc(C(=O)N/N=C/C(Br)=C/c2ccccc2)n[nH]1,-24.4,1.8,0.5,-4.8,1.2%,-22.2
COc1ccc(CCNC(=O)C2=CCN(S(=O)(=O)c3ccc(F)cc3)CC2)cc1OC,-3.0,6.6,-0.9,2.1,1.0%,0.8
SMILES,D2 PAM,TRPML1 inh,TRPML1 agonist,D2 ag,PINK1 expr mod,Six1-Eya2 blk
COc1ccc(/C=N/N=C2\CC3CCC2(C)C3(C)C)cc1O (stereo unspecified),-9.8,13.3,2.9,-1.5,-0.6%,-1.3
CS(=O)(=O)N1CCc2cc(C(=O)N3CCN(c4ccc(F)cc4)CC3)ccc21,-7.0,8.1&-24.4,3.6&0.1,0.5,7.3%&-0.5%,-1.7
COC(=O)C1=C(C)NC(=O)C1(NC(=O)c1ccncc1)C(F)(F)F (stereo unspecified),-9.4,18.2,0.3,-1.4,0.1%,-0.1
O=C(NNC(=O)c1sccc1-n1cccc1)c1cccc(Cl)c1,-1.5,-1.9,-0.3,-0.6,0.9%,-6.4
CC(=O)Oc1ccc(C(=O)Nc2cc(C)on2)cc1,-3.5,11.7,-0.2,-3.5,0.3%,-6.7
Oc1c(Br)cc(Br)cc1-c1nc2ccccc2s1,x,5.8,-0.6,x,-0.1%,x
NC(=O)c1ccccc1NC(=O)c1ccc(-c2ccc(Br)cc2)o1,x,-5.7,0.4,x,0.6%,x
O=C(NC(=S)Nc1ccccn1)c1ccc([N+](=O)[O-])cc1,-8.5,-1.1,0.7,1.4,6.1%,1.6
CC1(C)CC(=O)C(c2ccccc2)(c2ccccc2)C(=O)C1,-0.3,-10.6,-0.1,-1.8,-0.4%,2.6
COCc1ccc(C(=O)NC2CCCc3c2cnn3-c2ccc(C)c(C)c2)o1 (stereo unspecified),-13.3,7.2,-0.4,-1.2,3.0%,-3.0
COc1ccc(NS(=O)(=O)c2ccc(NS(=O)(=O)c3ccc(C)cc3)cc2)nn1,-20.1,6.0,0.1,-3.9,0.4%,-5.5
C=CCN1C(=O)/C(=C\c2cccs2)C(C(=O)OC)=C1C,-7.0,10.5,-0.2,-2.8,-0.6%,-3.1
Cc1ccc(Nc2nc(N)nc(CSC(=S)N3CCOCC3)n2)c(C)c1,-5.1,-22.7,1.0,0.1,2.9%,-4.5
COc1ccc(NC2CCCN(C(=O)c3cccc(N4CCNC4=O)c3)C2)cc1 (stereo unspecified),-4.4,0.1,-0.4,9.2,0.7%,-2.4
COC(=O)C1SCC2C(=O)N(Cc3ccccc3)CC(=O)N21 (stereo unspecified),3.8,12.9,0.2,1.0,-2.0%,9.4
Cc1ccc(NC(=O)c2nc[nH]c2C(=O)N(C)CCO)cc1,x,x,x,-3.1,-0.2%,-0.1
CCc1c(C)sc(NC(=O)C2CC2c2ccccc2)c1C(N)=O (stereo unspecified),-0.7,-1.5,-0.8,2.2,0.8%,-0.7
CCOc1ccc2nc(SCC(=O)c3ccc(Cl)s3)sc2c1,0.4,2.4,-0.1,-1.6,8.1%,23.0
N=C1C(c2ccccc2)=C(O)CN1NC(=O)c1ccc(Cl)cc1,-6.2,-9.2,-1.0,-4.8,2.5%,14.5
COc1ccc(NC(=O)CN(c2ccc(C)cc2)S(=O)(=O)c2cccc3nonc23)cc1OC,x,3.1,-0.9,x,0.4%,x
COc1ccc(OC)c(S(=O)(=O)Nc2ccccc2SC)c1,-13.5,-3.2,0.0,-3.8,9.2%[38.3 µM],-1.4
Oc1cc2c(cc1C(c1ccc(Cl)c(Cl)c1)N1CCCC1)OCO2 (stereo unspecified),-3.9,25.3,-0.2,4.0,2.6%,-24.3
O=S(=O)(Cc1ccccc1)c1nc2ccccc2n1Cc1ccccn1,3.9,4.2,-0.1,-1.9,-1.5%,-2.2
CCn1nc(C)c([N+](=O)[O-])c1C(=O)NNC(=O)c1ccc(Cl)cc1,-19.2,-1.8,0.6,6.5,2.7%,3.6
CC1Cc2nc(SCC(=O)NCc3ccco3)n(Cc3ccccc3)c(=O)c2S1 (stereo unspecified),-8.6,-5.3,0.5,-5.2,0.7%,-1.7
SMILES,D2 PAM,TRPML1 inh,TRPML1 agonist,D2 ag,PINK1 expr mod,Six1-Eya2 blk
CC1(c2nc3ccccc3[nH]2)CCC(=O)N1C1CC1 (stereo unspecified),-2.9,x,0.0,0.6,1.8%,1.9
CCC1Sc2ccccc2N(CC(=O)NC2CCCC2)C1=O (stereo unspecified),-17.9,-3.1,0.1,-2.1,0.2%[38.3 µM],-1.7
COc1ccc2cc3c(N)nn(C(=O)c4ccccc4Cl)c3nc2c1,-9.6,-5.3&-7.4,0.4&-0.7,-2.6,-1.4%&-0.6%,-21.1
COc1ccccc1N(CC(=O)NCCSCc1ccccc1)S(=O)(=O)c1ccc(C)cc1,-3.1,-0.3&4.0,1.8&5.8,1.8,-0.2%&1.5%,-5.8
Cc1ccccc1NC(=O)c1cc2c(=O)n3cccc(C)c3nc2s1,-7.2,33.3,-1.0,-7.8,8.7%,-0.6
CCn1c2ccccc2c2nnc(SCC(=O)NCc3cccs3)nc21,-5.3,14.6,4.3,-0.6,-1.5%,-0.5
Nc1ccc(Oc2ccc([N+](=O)[O-])cc2[N+](=O)[O-])cc1,-29.5,17.2,0.4,-0.9,-6.5%[38.3 µM],-10.6
C=CCCC(=O)NC1CC(C)(C)Cc2c1cnn2-c1cccc(F)c1 (stereo unspecified),0.1,12.0,0.7,-2.5,8.9%,2.2
C=CCNC(=O)CN1CCC(c2nc3cc(C)c(C)cc3[nH]2)CC1,1.5,12.0,0.8,0.3,1.6%,12.2
O=C(COC(=O)/C=C/c1cccc(F)c1)NC1CCCCC1,-5.8,-11.7,-0.9,-3.2,0.8%,3.0
O=C1CCC(=O)N(O)CCCCCNC(=O)CCC(=O)N(O)CCCCCNC(=O)CCC(=O)N(O)CCCCCN1,18.9,x,x,13.4,-0.4%,-9.0
O=C(Cn1ncc2c3ccccc3n(Cc3ccccc3F)c2c1=O)NCCCc1ccccc1,x,-2.3,-0.8,x,2.4%,x
CCCn1nnnc1SCC(=O)N1CCN(C(=O)c2ccco2)CC1,3.6,2.7,-0.2,-1.2,0.3%,2.7
Cc1cc(C)n2nc(C(=O)Nc3ccn(Cc4ccccc4C)n3)cc2n1,-0.9,8.8,0.3,0.0,1.2%,-6.0
Cc1cc(=O)oc(C)c1C(=O)NCc1c(F)cc(F)cc1F,-17.6,-1.1,0.3,-5.8,1.5%[38.3 µM],-1.4
COc1ccccc1CNC(=O)c1cccnc1,0.9,-10.8,0.3,4.4,-0.6%,9.1
CCCC(=O)Nc1nc(-c2ccccc2)c(CC)s1,1.7,6.2,-0.1,6.1,3.1%,8.5

# Looked up one by one from the entries so far:
SMILES,D2 PAM,TRPML1 inh,TRPML1 agonist,D2 ag,PINK1 expr mod,Six1-Eya2 blk
COc1ccccc1CNC(=O)c1cccnc1,0.9,-10.8,0.3,4.4,-0.6%,9.1
CCCC(=O)Nc1nc(-c2ccccc2)c(CC)s1,1.7,6.2,-0.1,6.1,3.1%,8.5
